# VDR inhibitor = inhibitors of human vitamin D receptor; Potency, µM, for inactives: max response, negative = inhibition, most hits filed as inhibitors; AID 504847; actives 0.93% (n = 400,000); VDR-SRC2-3 peptide fluorescence polarization, 2 h; P11473; active = well fitted inhibition curve with a large enough effect; inconclusive = small, poorly fitted or top-dose-only effect, or another doubt; inactive = no such curve, though single readings can be large or run the other way; note: series mostly up to about 120 µM
# Target sequence (P11473 whole entry, looked up): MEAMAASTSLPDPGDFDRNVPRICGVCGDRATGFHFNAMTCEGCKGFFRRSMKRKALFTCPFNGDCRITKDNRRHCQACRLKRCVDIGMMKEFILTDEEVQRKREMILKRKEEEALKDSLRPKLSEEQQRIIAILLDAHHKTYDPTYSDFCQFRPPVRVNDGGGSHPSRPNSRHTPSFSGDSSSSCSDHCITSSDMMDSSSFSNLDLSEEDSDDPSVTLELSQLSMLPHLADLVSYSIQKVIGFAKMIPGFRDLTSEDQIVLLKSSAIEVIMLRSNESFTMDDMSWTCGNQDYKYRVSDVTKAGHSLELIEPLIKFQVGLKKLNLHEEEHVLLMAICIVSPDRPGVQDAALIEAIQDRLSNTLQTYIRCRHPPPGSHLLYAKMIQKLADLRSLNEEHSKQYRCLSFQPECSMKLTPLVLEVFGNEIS
#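 FP read-out; VDR + SRC2-3 coactivator peptide; 23 nl compound by pintool; 2 h RT incubation; reagents held at 4 deg C, protected from light.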
# * = called active by the depositor; ? = inconclusive. % is set by controls: 0 for no effect and ±100 for the full control effect; potency is the fitted concentration of half-maximal effect.
SMILES,VDR inhibitor
O=c1nc2n(c3ncccc13)CCC2,1%
Cc1cc(C(=O)Nc2sc3c(c2C#N)CCC(C)C3)cs1 (stereo unspecified),4%
O=C(CNC(=O)c1ccco1)NCC(=O)OCc1ccccc1Cl,-1%
COc1cccc(/C=N/NC(=O)CC(C)O)c1OC/C=C/c1ccccc1 (stereo unspecified),-4%
O=C(Nc1ccc(OC(F)F)cc1)c1cc[n+]([O-])cc1,3%
CN1CCN(c2nc3c(c(=O)[nH]c(=O)n3C)n2Cc2cccc(Br)c2)CC1,-19%
Nc1nnc(-c2ccco2)s1,-6%
CN(C(=O)Cc1ccccc1OC(=O)c1ccccc1)c1ccccc1I,2%
COc1ccc(CCCc2nc3ccccc3[nH]2)cc1,-5%
Cc1nc2c(C(=O)NCCc3ccc(Cl)cc3)cnn2c(C)c1Cc1c(F)cccc1Cl,9%
CC1(C)CC(=O)C(=Cc2cn(-c3ccccc3)nc2-c2ccccc2)C(=O)C1,?
COc1cc(-c2nnc(SC/C=C/c3ccccc3)n2N)cc(OC)c1OC,3%
CCOC(=O)c1csc(COc2ccc(OC)cc2)n1,6%
COc1ccc(S(=O)(=O)NCCc2csc3nc(-c4cccc(C)c4)nn23)cc1F,2%
O=S1(=O)CCN(Cc2cccc(Cl)c2)CC1,6%
CCc1ccccc1NC(=O)CSc1nnc([C@@H](NC(=O)OC(C)(C)C)C(C)CC)o1 (stereo partly specified),-11%
COc1ccc(-c2cc(C(=O)N(C)Cc3ccccc3)no2)cc1OC,17%
COC(=O)C1=C(C)N(C)C(=O)NC1c1ccsc1 (stereo unspecified),-1%
CNC(=S)N/N=C(\C)c1ccccc1,11%
CCOC(=O)c1c(S(=O)(=O)NCC(=O)Nc2ccc(C)c(N(C)C)c2)c(C)n(C)c1C,5%
Cc1csc(=O)n1CCC(=O)OCC(=O)Nc1cccc(C#N)c1,-1%
O=C1CCCC2=C1C(c1ccccc1)NC(=S)N2 (stereo unspecified),19%
COc1ccc(CNC(=O)c2cccc(N(C)C)c2)cc1,-7%
NS(=O)(=O)c1ccc(NC(=O)COC(=O)COc2cccc(C(F)(F)F)c2)cc1,-18%
O=c1cc(CN2CCCc3ccccc32)nc2sccn12,22%
CCCCN1CCC(n2c(=O)[nH]c3ccccc32)CC1,-7%
COc1ccc(-n2nnc(-c3nc(-c4ccc5c(c4)OCO5)no3)c2C)cc1Cl,-2%
COc1cc(C(C[N+](=O)[O-])c2c(N)n(C)c(=O)n(C)c2=O)ccc1O (stereo unspecified),?
CCOc1ccc(N2C(=O)/C(=C/c3cc(OC)c(OC)c(OC)c3)N(CC(=O)OC)C2=S)cc1,-22%
Cc1[nH]c2ccc(C(=O)N3CCC(C(N)=O)CC3)cc2c1C,-1%
COc1ccc(C(=O)N/C(=C/c2cccs2)c2nc3ccccc3[nH]2)cc1OC,3%
COc1ccc(C(=O)NCC(=O)NCc2cc(=O)n(C)c(=O)n2C)cc1,-14%
COCCNC(=O)c1cc2c(=O)n3cccc(C)c3nc2n1C,-18%
COc1cccc(CN(C)C(=O)c2cc(COc3ccc(-n4cncn4)cc3)on2)c1,-11%
CC(C)(C)NC(=O)C(c1ccc(O)cc1)N(Cc1ccco1)C(=O)CCC(=O)Nc1ccccn1 (stereo unspecified),-11%
Cc1nc(N2CCN(Cc3ccccc3)CC2)nc2c1C(=O)CC(c1ccco1)C2 (stereo unspecified),1%
COc1ccc(N2CC(C(=O)Nc3ccc(S(=O)(=O)Nc4nc(C)cc(C)n4)cc3)CC2=O)cc1 (stereo unspecified),-16%
Cc1ccc(C)c(NC(=O)C(CC(=O)O)C2CCCO2)c1 (stereo unspecified),-2%
O=C1CN(C(=O)c2cc3ccccc3oc2=O)C(c2ccccc2)c2cc(F)ccc2N1 (stereo unspecified),-10%
N#CNC1=NCN(CCc2ccccc2)CN1,-13%
CCOC(=O)C(NCCOC)(NC(C)=O)C(F)(F)F (stereo unspecified),2%
CCOC(=O)Cn1cc(/C=C(/C#N)C(=O)NC(C)C)c2ccccc21,-11%
COc1ccccc1CNS(=O)(=O)c1ccc2c(c1)N(C(C)=O)CCO2,-20%
CCOc1cccc(N)c1,-23%
Cc1ccc(NC(=O)Cn2nnc(-c3ccccc3NC(=O)c3cccs3)n2)cc1,21%
COc1ccc(N2CCN(CCNC(=O)C3CC(=O)N(C4CCCC4)C3)CC2)cc1 (stereo unspecified),-2%
CCCCN(CC)c1nc(-c2ccccc2F)nc2ccccc12,13%
O=C(CCN1C(=O)S/C(=C/c2ccc(F)cc2)C1=O)Nc1ccc(O)c(C(=O)O)c1,-18%
CCN(CC(=O)NC(C)(C)C)C(=O)CN1c2cccc3cccc(c23)S1(=O)=O,-15%
O=S(=O)(NCc1ccc(Cl)cc1)c1cnc[nH]1,-9%
COc1ccccc1CC(NC(C)=O)C(=O)NC1CCN(C(=O)Nc2ccccc2Cl)CC1 (stereo unspecified),6%
CCOC(=O)c1sc2nc3c(cc2c1N)COC(C(C)C)C3 (stereo unspecified),3%
O=C(CN1CCOCC1)N/N=C/C(Br)=C\c1ccccc1,-7%
Cc1ccc2[nH]c(CSc3nnc(COc4ccccc4C)n3C)cc(=O)c2c1,6%
O=C(Nc1cccc(NC(=O)c2ccc(Br)o2)n1)c1ccc(Br)o1,2%
Cc1ccc(C(=O)Nc2cc(-c3nc4ncccc4o3)ccc2C)c(C)c1,0%
CCC1CCCCN1Cc1nc2c(c(=O)n(C)c(=O)n2C)n1CCC(C)C (stereo unspecified),-21%
Cc1ccc(NC(=O)Cn2c(=O)oc3cc(S(=O)(=O)N4CCCCC4)ccc32)c(Cl)c1,2%
CCN1CCN(C(=O)c2cnn(-c3cccc(C)c3)c2C2CCN(C(=O)OC(C)(C)C)CC2)CC1,6%
Cc1cccc(C(P(=O)(c2ccccc2)c2ccccc2)P(=O)(c2ccccc2)c2ccccc2)n1,-8%

# Next part:
SMILES,VDR inhibitor
CN(C)CCN(C(=O)c1ccc2ccccc2c1)c1nc2ccc(F)cc2s1,-29%
COC1CCCCC1Nc1ccc(C)c(C)c1 (stereo unspecified),8%
Cc1ccc(C)c(N2CCN(C(=O)C(Cc3ccccc3)n3cccc3)CC2)c1 (stereo unspecified),-8%
CCOc1cc(C2CC(=O)c3c(ccc4ccccc34)N2)ccc1O (stereo unspecified),13%
O=c1[nH]c2ccc(S(=O)(=O)Nc3ccc(Br)cc3)cc2[nH]1,-6%
O=c1c(/C=N/OCc2ccc(Cl)cc2Cl)c[nH]n1-c1cccc(Cl)n1,15%
Cc1ccc(C)c(Nc2ccc(C(=O)NCCc3ccccc3)cn2)c1,-13%
Cc1ccc2cc(CN(CC3CCCO3)C(=S)Nc3ccccc3)c(=O)[nH]c2c1C (stereo unspecified),-9%
Cc1ccccc1NC(=O)CS(=O)(=O)c1cccc2nsnc12,-14%
C=CC(=O)Nc1cccc(Oc2ncnc3[nH]cc(-c4cnc5ccccc5c4)c23)c1,3%
N/C(=N\OC(=O)c1ccc2c(c1)OCO2)c1ccc(Br)cc1,13%
CCOc1ccccc1N(CC(=O)Nc1ccc(S(=O)(=O)N2CCOCC2)cc1)S(=O)(=O)c1ccccc1,4%
Cc1ccccc1C(=O)N1CCC(C(=O)OCc2ccccn2)CC1,-6%
Cc1cc(C(=O)N2CCN(c3ccc(F)cc3)CC2)on1,22%
O=C(/C=C/c1ccc(Br)cc1)NC1CCCCCC1,3%
COc1ccc(CNC(=O)C(C)n2nc(C)n3c(cc4occc43)c2=O)cc1 (stereo unspecified),4%
CCCC(=O)Nc1ccc(-c2nc3cc(C)ccc3o2)cc1,6%
COc1ccc(Cl)cc1NC(=O)Nc1cnccn1,-6%
Cc1cc(Nc2ccccc2F)n2nc(-c3ccccc3)nc2n1,11%
COCCNC(=O)c1onc(CSc2cccc(C)c2)c1C(=O)O,-13%

# A draw from above in order of molecular weight, smallest number first.
SMILES,VDR inhibitor
COC1CCCCC1Nc1ccc(C)c(C)c1 (stereo unspecified),8%
COc1ccc(Cl)cc1NC(=O)Nc1cnccn1,-6%
Cc1cc(C(=O)N2CCN(c3ccc(F)cc3)CC2)on1,22%
CCCC(=O)Nc1ccc(-c2nc3cc(C)ccc3o2)cc1,6%
Cc1cc(Nc2ccccc2F)n2nc(-c3ccccc3)nc2n1,11%
O=C(/C=C/c1ccc(Br)cc1)NC1CCCCCC1,3%
CCOc1cc(C2CC(=O)c3c(ccc4ccccc34)N2)ccc1O (stereo unspecified),13%
Cc1ccccc1C(=O)N1CCC(C(=O)OCc2ccccn2)CC1,-6%
Cc1ccc(C)c(Nc2ccc(C(=O)NCCc3ccccc3)cn2)c1,-13%
COCCNC(=O)c1onc(CSc2cccc(C)c2)c1C(=O)O,-13%
N/C(=N\OC(=O)c1ccc2c(c1)OCO2)c1ccc(Br)cc1,13%
O=c1[nH]c2ccc(S(=O)(=O)Nc3ccc(Br)cc3)cc2[nH]1,-6%
COc1ccc(CNC(=O)C(C)n2nc(C)n3c(cc4occc43)c2=O)cc1 (stereo unspecified),4%
CN(C)CCN(C(=O)c1ccc2ccccc2c1)c1nc2ccc(F)cc2s1,-29%
O=c1c(/C=N/OCc2ccc(Cl)cc2Cl)c[nH]n1-c1cccc(Cl)n1,15%
Cc1ccc2cc(CN(CC3CCCO3)C(=S)Nc3ccccc3)c(=O)[nH]c2c1C (stereo unspecified),-9%
CCOc1ccccc1N(CC(=O)Nc1ccc(S(=O)(=O)N2CCOCC2)cc1)S(=O)(=O)c1ccccc1,4%

# Continued:
SMILES,VDR inhibitor
CCO/C=C1/C(=O)N(c2ccccc2OC)C(=O)c2ccccc21,-20%
COc1ccc(CCNC(=O)c2ccccc2NC(=O)C2=C(C)OCCS2)cc1OC,3%
C1=CCN(Cc2ccccc2)C1,-7%
Nc1ccccc1SCc1ccccc1Cl,-9%
C[C@@H]1CCC[C@]2(O[C@H](CCO)C[C@@H](O)[C@@H]2O)O1,-13%
Cc1nc(CC(=O)Nc2nc(C(C)(C)C)cs2)cs1,-1%
CCCC1CC(=O)NC1(C(=O)OCC)C(=O)OCC (stereo unspecified),-11%
O=c1c2ccccc2[nH]c(=S)n1Cc1ccc2c(c1)OCO2,0%
O=C(Nc1ccccc1Oc1ccccc1)C1CC1,13%
CCOC(=O)C(C)/C(C)=N\Nc1ccc([N+](=O)[O-])cc1[N+](=O)[O-] (stereo unspecified),-14%
CC(=O)N1CCn2c3ccc(C)cc3c3cccc1c32,10%
Cc1ccc(/C=N/n2c(C)nnc2C)cc1,5%
CCOC(=O)CC(/C(C)=N\O)c1ccccc1 (stereo unspecified),0%
Cc1ccccc1NCc1ccccc1O,10%
CN(C(=O)c1ccccc1Cl)c1ccccc1C(=O)NCc1ccccc1,-1%
COc1ccc(OC)c(CNC(=O)Cn2ncc3c([nH]c4ccc(C)cc43)c2=O)c1,7%
CN(C)C(=O)c1ccc(-c2nccc(NCc3cccs3)n2)cc1,45µM*
CCCCn1c(/N=C/c2ccc(N(C)C)cc2)nc2ccccc21,9%
O=C(O)c1nc2cc(Cl)c(Cl)cc2[nH]c1=O,1%
COc1ccc(NC(=O)CC2CCCC2)cc1S(=O)(=O)N1CCCCC1,-20%
CC(=O)c1c(C)nn(CC(O)COc2ccc3ccccc3c2)c1C (stereo unspecified),-16%
Cc1cccc(N2CCN(C(=O)C3CCN(S(=O)(=O)c4cccc5cccnc45)CC3)CC2C)c1 (stereo unspecified),-16%
COCCn1c(=O)[nH]c2cc(C(=O)Nc3cc(OC)c(OC)c(OC)c3)ccc2c1=O,4%
COc1ccc(CN2CCNC(=O)C2CC(=O)N(C)Cc2nccs2)c(OC)c1 (stereo unspecified),-16%
Cc1[nH]n(-c2cccc(Cl)c2)c(=O)c1C=NCC(C)C,15%
Cc1cc(O)c2c(C)c(CC(=O)N3CCCCC3)c(=O)oc2c1,25%
CCC(C(=O)N1CCC(C(N)=O)CC1)n1nc(C)n2c(cc3occc32)c1=O (stereo unspecified),16%
C/C(=N\NC(=O)CSCc1ccc([N+](=O)[O-])cc1)c1ccccc1,-8%
COC(=O)c1ccc(OCC(=O)Nc2ccccc2C(=O)NC2CC2)cc1,17%
O=C1N[C@H](Cc2ccccc2)COC(=O)[C@H](Cc2ccc(F)cc2)C/C=C\C[C@@H]1CC(=O)N(CCO)Cc1ccccc1,-6%
O=C(NCCc1ccc(Cl)cc1)/C(=C/c1cccnc1)NC(=O)c1ccccc1,-3%
Clc1nc(NCc2ccco2)nc(N2CCCCC2)n1,0%
O=C(c1ccc2c(c1)OCO2)C1CCCN(Cc2cc(F)ccc2-n2cccn2)C1 (stereo unspecified),10%
O=C(CCSc1ccccc1)N1CCCC1,7%
CCN(CC)CCCN(Cc1cc2cc3c(cc2[nH]c1=O)OCCO3)C(=O)Nc1ccccc1,17%
CCOC(=O)CSc1nnc(CNc2ccc(Cl)cc2)n1Cc1ccccc1,-8%
O=C(N/C(=C\c1ccc(Br)cc1)C(=O)N1CCCC1)c1cccs1,-3%
COc1ccccc1C(=O)Nc1ccc(C(=O)OCc2cc(=O)n3nc(C4CC4)sc3n2)cc1,13%
CCc1cc(=O)oc2c(CN3CCCC3)c(O)c(Cl)cc12,-7%
CC1=C(C(=O)O)N2C(=O)C(NC(=O)c3nn(C)cc3Cl)C2SC1 (stereo unspecified),-11%
O=C(N/N=C\c1cn[nH]c1-c1ccccc1)c1cccnc1,6%
O=C(/C=C/c1ccco1)N(Cc1ccc(Cl)cc1)C1CCS(=O)(=O)C1 (stereo unspecified),-20%
NC(=O)c1nn(-c2ccccc2)nc1NC(=O)CN1CCCC1,2%
Cc1ccc(NC(=O)N2CCN(C)c3ncccc32)cc1C,-1%

# Two entries picked at random from those above:
SMILES,VDR inhibitor
O=C(/C=C/c1ccco1)N(Cc1ccc(Cl)cc1)C1CCS(=O)(=O)C1 (stereo unspecified),-20%
NC(=O)c1nn(-c2ccccc2)nc1NC(=O)CN1CCCC1,2%

# High-throughput results: PubChem, National Center for Advancing Translational Sciences (NCATS)

# The list is partial; count on the stated rates, not on these rows.
